SARS PLP yeast: qHTS of Yeast-based Assay for SARS-CoV PLP; S. cerevisiae expressing SARS-CoV PLpro, growth rescue; control for the full effect not named in the record; Potency, µM (top dose mostly 32.9 µM), for the others: at the highest dose activity, positive = growth rescue; hit rate 0.19% among 330,000; AID 485353, 2010; active means well fitted rising curve with a large enough effect; inconclusive means small, poorly fitted or top-dose-only effect; inactive means no such curve, though single readings can be large or run the other way; note: 0% is about no effect; nearly all actives have a fitted effect of over 55% in size; growth read by luminescence after 48 h
RE007 growth inh: qHTS Assay for Inhibitors of the HIV-1 protein Vpr | hit rate 0.21% among 360,000 | Potency, µM (doses to about 92.2 µM), inactives show at the top dose activity change, negative = less growth | AID 651644, 2012 | S. pombe RE007 Vpr strain, BacTiter-Glo ATP luminescence, 24 h; control for the full effect not named in the record; active = well fitted falling curve with a large enough effect; inconclusive = small, poorly fitted or top-dose-only effect; inactive = no such curve, though single readings can be large or run the other way;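 note: % is set by controls: 0 for no effect and ±100 for the full control effect; nearly all actives have a fitted effect of over 50% in size; the assay follows cell death caused by Vpr and the record does not say whether a fall means rescue or toxicity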
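Fission yeast RE007 carrying one integrated HIV-1 vpr copy, seeded at OD 0.01 in PMG+AL medium with 23 nL pinned compound. Grown 24 h at 30 degrees; viability read by BacTiter-Glo luminescence after 5 min.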
NS1 function inh: qHTS Assay for Inhibitors of Influenza NS1 Protein Function | S. cerevisiae slowed by influenza A NS1, growth recovery by OD600 | Potency, µM (doses to about 46.1 µM), without a hit: at the highest dose activity, positive = more growth | hit rate 0.4% among 270,000; active means well fitted rising curve with a large enough effect; inconclusive means small, poorly fitted or top-dose-only effect; inactive means no such curve, though single readings can be large or run the other way; note: nearly all actives have a fitted effect of over 50% in size
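A cell-based growth assay was used: compounds that relieve NS1-induced slow growth of budding yeast raise OD600. Assay medium was yeast nitrogen base with ammonium sulphate and -URA supplement, pH 6.0, with 2% galactose.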
2A StopGo: High Throughput Screening for Foot and Mouth Disease Virus Antivirals; human cells with a luciferase reporter of 2A StopGo recoding; control for the full effect not named in the record; Potency, µM (titrated, usually from 57.9 µM), inactives show at the highest dose signal change, negative = less light; hit rate 1.2% among 410,000; AID 1159524, 2015; active = well fitted falling curve with a large enough effect; inconclusive = small, poorly fitted or top-dose-only effect; inactive = no such curve, though single readings can be large or run the other way; tested in HEK293T cells; note: % is set by controls: 0 for no effect and ±100 for the full control effect; nearly all actives have a fitted effect of over 45% in size; luciferase light after 4 h
Cruzain noTriton: qHTS Assay for Promiscuous and Specific Inhibitors of Cruzain (without detergent); purified cruzain, Z-FR-AMC fluorescence, no detergent; Potency, µM, without a hit: max response, negative = inhibition, hits mostly inhibitors; hit rate 2.3% among 200,000; AID 1476, 2009;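 note: plate controls were enzyme without inhibitor for no effect and buffer without enzyme for full effect; nearly all actives have a fitted effect of over 40% in size; top concentration of the series not given in the record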
Target sequence (P25779 123-467 limits assumed): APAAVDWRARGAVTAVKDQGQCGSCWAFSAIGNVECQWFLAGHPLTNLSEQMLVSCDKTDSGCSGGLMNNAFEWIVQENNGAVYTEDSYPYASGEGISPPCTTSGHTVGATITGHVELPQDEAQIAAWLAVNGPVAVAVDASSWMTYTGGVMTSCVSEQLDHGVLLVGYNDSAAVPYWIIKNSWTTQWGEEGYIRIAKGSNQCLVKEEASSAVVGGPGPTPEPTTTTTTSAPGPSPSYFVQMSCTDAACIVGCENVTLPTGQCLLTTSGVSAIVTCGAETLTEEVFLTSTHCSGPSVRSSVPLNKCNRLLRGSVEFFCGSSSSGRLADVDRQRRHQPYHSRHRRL
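Purified cruzain at 1.5 nM, pre-incubated 15 min with compound at room temperature in 100 mM sodium acetate pH 5.5, 5 mM DTT, 0.00005% Triton X-100. Reaction started with 2 uM Z-FR-AMC; AMC fluorescence increase over 60 s gives rate.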
Lassa entry inh: qHTS for Inhibitors of binding or entry into cells for Lassa Virus; Potency, µM (titrated, usually from 37.9 µM), for inactives: top-dose activity change, negative = inhibition, hits mostly inhibitors; Lassa virus pseudotype entry inhibition, cell reporter; control for the full effect not named in the record; hit rate 1.2% among 300,000; active means well fitted inhibition curve with a large enough effect; inconclusive means small, poorly fitted or top-dose-only effect, or effect the other way; inactive means flat fitted curve, though single readings scatter; tested in HEK293 cells; note: % is set by controls: 0 for no effect and ±100 for the full control effect; nearly all actives have a fitted effect of over 50% in size; luciferase read-out
Cruzain Triton: qHTS Assay for Promiscuous and Specific Inhibitors of Cruzain (with detergent) | Cruzipain (Trypanosoma cruzi), P25779 | purified cruzain, Z-FR-AMC fluorescence, 0.01% Triton | Potency, µM, for inactives: max response, negative = inhibition, actives largely listed as inhibitors | hit rate 0.43% among 200,000;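 note: plate controls were neutral wells for no effect and buffer without enzyme for full effect; nearly all actives have a fitted effect of over 40% in size; top concentration of the series not given in the record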
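Detergent-containing arm of a paired screen for aggregation-based inhibition: 0.01% Triton X-100 present. Cruzain at 1.5 nM cleaved 2 uM Z-FR-AMC at pH 5.5 with 5 mM DTT; AMC fluorescence gain over 60 s measured activity.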
Marburg entry inh: qHTS for inhibitors of binding or entry into cells for Marburg Virus; Marburg virus pseudotyped entry inhibition, cell reporter; control for the full effect not named in the record; about a third of the inactives were read at about 46 µM; Potency, µM (highest dose often 37.8 µM), for the others: top-dose activity change, negative = inhibition, usual class: inhibitors; hit rate 1.8% among 300,000; active = well fitted inhibition curve with a large enough effect; inconclusive = small, poorly fitted or top-dose-only effect, or effect the other way; inactive = flat fitted curve, though single readings scatter; tested in HEK293 cells; about a fifth of its hits are not listed in these tables; note: % is set by controls: 0 for no effect and ±100 for the full control effect; luciferase read-out
The depositor's hits bear a star; ? = inconclusive; . = not tested or not shown; [ ] = dose if it differs, or a comment. Unless noted, calls come from the whole dose curve; as a rule, active = well fitted curve in the direction sought with a large enough effect; inconclusive = small, poorly fitted or top-dose-only effect, or another doubt; inactive = no such curve, though single readings can be large; an effect the other way counts as inactive or inconclusive. Potency is the fitted concentration of half-maximal effect.

cpd	molecule	SARS PLP yeast	RE007 growth inh	NS1 function inh	2A StopGo	Cruzain noTriton	Lassa entry inh	Cruzain Triton	Marburg entry inh
1	CCOC(=O)C(NC(=O)Nc1ncccn1)(Oc1ccccc1)C(F)(F)F (stereo not given)	3%	6%	-7%	0%	-1%	0%	-3.3%	18%
2	O=C(Nc1ccccc1N1CCOCC1)c1ccc2c(c1)C(=O)N(Cc1ccncc1)C2=O	1%	0%	-34%	0%	0%	5%	0.8%	-2%
3	CC(=O)N1CC(C)Sc2ccc(S(=O)(=O)NCCc3ccc(C)cc3)cc21 (stereo not given)	-9%	1%	-24%	-14%	.	.	.	.
4	COc1ccc(NS(=O)(=O)c2ccc(C)c(C(=O)N(C)Cc3ccc(C)cc3)c2)cc1	-7%	16%	.	1%	.	11µM*	.	?
5	Nn1c(COc2ccc(Cl)cc2)n[nH]c1=S	-2%	14%	.	20%	.	-10%[46.1 µM]	.	9%[46.1 µM]
6	Cc1ccc(CN2CC(C(=O)NNC(=O)Cn3ccc(C(F)(F)F)n3)CC2=O)cc1 (stereo not given)	-2%	1%	.	-23%	.	14%	.	28%
7	O=C(CN(c1cc(C(F)(F)F)ccc1Cl)S(=O)(=O)c1ccccc1)NCCc1ccccc1	.	.	.	13%	2%	-2%[46.1 µM]	-7.6%	-6%[46.1 µM]
8	O=C(c1cc(COc2cccc(C(F)(F)F)c2)on1)N1CCc2ccccc2C1	.	0%	.	-12%	.	?	.	-13%
9	COc1ccccc1N(Cc1cc(=O)[nH]c2ccccc12)C(=O)c1ccc([N+](=O)[O-])cc1	0%	-4%	9%	-5%	.	0%	.	8%[46.1 µM]
10	CCc1ccc(NC(=O)c2sc(-n3nc(C)c(Cc4ccc(OC)cc4)c3C)nc2C)cc1	.	.	.	-29%	-6%	12%[46.1 µM]	-0.2%	?
11	COc1ccc(CN(C)C(=O)CNC(=O)c2sc3ccccc3c2Cl)c(OC)c1OC	.	25%	.	?	.	?	.	-68%
12	CCOC(=O)N1CCN(C(=O)CN(Cc2ccc(Cl)cc2)S(=O)(=O)c2ccc(C)cc2)CC1	-2%	-1%	0%	?	?	8.2µM*	-2.0%	-23%
13	Cn1cccc1/C=C1/C(=O)NC(=O)N(C(C)(C)C)C1=O	2%	1%	3%	-18%	.	?	.	-4%[46.1 µM]
14	Cn1c(N)c(C(=O)CCl)c(=O)n(C)c1=O	-7%	-15%	1%	?	-8%	.	-3.9%	.
15	N#C/C(=C\c1cn(Cc2cccc(F)c2)c2ccccc12)C(=O)NCc1ccco1	15%	16%	15%	-19%	-5%	-1%	-5.8%	?
16	COc1cc(C(=O)NCC(=O)N/N=C(/C)c2ccc3c(c2)CCCC3)cc(OC)c1OC	1%	-2%	-7%	-5%	.	-16%	.	-23%[46.1 µM]
17	CCN(CC)CCN1C(=O)C(=O)/C(=C(/O)c2ccc(Cl)cc2)C1c1ccncc1 (stereo not given)	7%	2%	-3%	2%	10%	19%	-1.3%	2%
18	CCOC(=O)c1c(S(=O)(=O)N2CCCC(C(=O)Nc3cccc(CC)c3)C2)c(C)n(CC)c1C (stereo not given)	.	.	.	-13%	-8%	3%[46.1 µM]	5.8%	.
19	COc1cccc(/C=N/n2c(-c3ccco3)nc3ccccc3c2=O)c1OC	11%	-6%	11%	?	1%	1%	-3.3%	15%
20	CCN(CC(=O)NC(=O)NC1CCCCC1)Cc1nc2ccccc2c(=O)[nH]1	11%	11%	-3%	-15%	5%	-5%	-4.7%	-1%
21	COCCCn1c(SCc2nc3ccccc3c(=O)[nH]2)nc2ccccc2c1=O	4%	11%	2%	0%	4%	-9%	1.3%	3%
22	O=C(CNC(=O)c1cccs1)NCCN1CCN(Cc2ccccc2)CC1	-6%	-6%	0%	.	4%	13%	0.6%	-9%
23	NC(=O)NC(=O)COC(=O)c1ccc(OC(F)(F)F)cc1	-1%	-4%	0%	0%	.	.	.	.
24	O=C1CCN(CCCc2ccccc2)CCN1CCO	5%	9%	-7%	-5%	.	.	.	.
25	Cc1ccc(C(C(=O)NC2CCCCC2)N(CCCN2CCOCC2)C(=O)c2snc(C(N)=O)c2N)cc1 (stereo not given)	0%	-14%	4%	13%	.	.	.	?
26	C=CCn1cc(C(=O)NCc2ccco2)c(=O)c2cc(S(=O)(=O)N3CCCCCC3)ccc21	1%	-2%[3.69 µM]	30%	-20%	?	-12%	-5.3%	?
27	Cc1ccc(Cl)cc1-c1ccc(C=Nc2ccc(N3CCOCC3)cc2)o1	-15%	-14%	7%	-17%	-3%	?	-6.5%	?
28	CCC/C(=N/NC(=O)c1cccc(Cl)c1)c1ccccc1	-12%	-9%	7%	-14%	5%	0%	-3.8%	?
29	COc1cccc(/C=N/n2c(-c3cccs3)n[nH]c2=S)c1	-14%	-11%	-76%	-14%	-12%	0%	-14%	-11%[46.1 µM]
30	C=CCN(CC=C)Cc1ccc(C(=O)OC)o1	0%	-5%	7%	1%	-7%	17%	-1.0%	?
31	N#Cc1ccc2nc3c(nc2c1)CCCC3	0%	?	6%	24%	.	8%[46.1 µM]	.	?
32	O=C1CCCN1CCCNS(=O)(=O)c1ccc(F)cc1F	1%	3%	7%	0%	.	10%	.	0%[46.1 µM]
33	O=S(=O)(c1ccccc1)C1CON(Cc2ccccc2)C1c1ccccc1 (stereo not given)	-1%	9%	.	0%	.	-1%	.	3%[46.1 µM]
34	Cc1ccn2cc(C(=O)NC3CCN(Cc4ccccc4)CC3)nc2c1	-5%	-11%	-3%	.	-2%	-12%	0.7%	?
35	COc1ccccc1OCC(=O)NCCS(=O)(=O)N1CCN(c2ccccc2)CC1	-4%	4%	.	-18%	.	1%	.	8%
36	COC(C[C@@H]1O[C@@H]1[C@H](O)[C@H](C)OCc1ccccc1)OC	0%	-14%	3%	-1%	.	.	.	.
37	CC(=N[C@@H]1CCCC[C@H]1N=C(C)c1ccccc1O)c1ccccc1O	25%	-16%	14%	-1%	11%	22%	-2.4%	0%
38	COc1ccc(NC(=O)CNC(=O)c2nn(-c3ccc(OC)c(OC)c3)c(=O)c3ccccc23)c(OC)c1	0%	15%	-11%	?	.	-15%[46.1 µM]	.	-18%[46.1 µM]
39	Cn1c(SCC(=O)Nc2ccc(NC(=O)c3ccccc3F)cc2)nnc1-c1ccncc1	0%	0%	0%	22%	.	.	.	21%[46.1 µM]
40	COc1ccc(CCN2C(=S)N(C)C(=O)C2CC(=O)Nc2ccc(F)cc2)cc1 (stereo not given)	-1%	27%	3%	-20%	.	-17%	.	?
41	CCOC(=O)c1cc(-c2csc(Nc3c(C)cc(C)cc3C)n2)on1	0%	-1%	3%	-7%	.	-8%	.	-14%
42	COCCNC(=O)C(c1cccs1)N(C(=O)Cn1nnc2ccccc21)c1ccc(OC)cc1 (stereo not given)	-5%	8%	6%	37%[activator]	?	?	-1.5%	14%
43	O=C(Nc1ccc(-n2cnnn2)cc1)c1cc(S(=O)(=O)N2CCCC2)ccc1Cl	5%	-18%	.	?	.	-27%	.	?
44	COc1ccc(OCCC(=O)N2CCOCC2)cc1	0%	-3%	3%	21%	.	15%	.	?
45	O=C1C=C(NCc2ccco2)CC(c2ccc(Cl)cc2)C1 (stereo not given)	-7%	-14%	-9%	-26%	-4%	-13%	5.0%	-5%
46	Cc1cc(Nc2ncc(Cl)cc2Cl)n(-c2ccccn2)n1	5%	13%	0%	-2%	-5%	7%	3.3%	-2%
47	COC(=O)CSc1[nH]c2ccc(Br)cc2c1[N+](=O)[O-]	1%	2%	.	-25%	.	-3%[46.1 µM]	.	1%[46.1 µM]
48	O=C(c1ccc(CNS(=O)(=O)c2ccc(Br)cc2)cc1)N1CCCCC1	4%	-11%	1%	-5%	.	?	.	-13%[46.1 µM]
49	S=C(NCc1ccccc1)Nc1cccc2ccccc12	-1%	-6%	6%	27%	.	?	.	7%[46.1 µM]
50	CC(=O)c1ccc(NC(=O)c2cc(C)nc3c2c(C)nn3-c2ccc(C)cc2)cc1	.	.	.	-16%	-6%	?	-2.6%	.

Remaining list, next part.
cpd	molecule	SARS PLP yeast	RE007 growth inh	NS1 function inh	2A StopGo	Cruzain noTriton	Lassa entry inh	Cruzain Triton	Marburg entry inh
51	CCOC(=O)c1c(NC(=O)Cc2coc3cc(C)cc(C)c23)sc2c1CCC2	.	.	.	-7%	-25%	22%[46.1 µM]	-0.6%	26%[46.1 µM]
52	Cc1cc(Cl)ccc1NC(=S)NCc1ccco1	20%	-3%	-6%	0%	16%	9%	-1.1%	?
53	Cc1cc(OC(=O)N2CCCCC2)cc(C)c1Cl	.	-9%	-32%	-2%	7%	2%	-1.9%	-18%
54	CC(=O)COc1nc2c(c(-c3ccco3)c1C#N)CCc1ccccc1-2	1%	4%	-3%	-27%	.	?	.	-20%[46.1 µM]
55	O=C(O)c1cc(-c2cccs2)nn1-c1ccccc1	1%	13%	7%	-6%	.	4%[46.1 µM]	.	?
56	O=C(NC1CCCCCC1)C(=S)NC1CCCCC1	0%	-1%	5%	67%[activator]	.	?	.	-5%[46.1 µM]
57	Cc1ccccc1NC(=S)NCCc1ccccc1	-8%	.	.	66%[activator]	14%	?	-0.4%	?
58	O=P(O)(O)C(O)C(F)(F)C(F)(F)C(F)(F)C(F)F (stereo not given)	-1%	1%	7%	26%	6%	12%	2.5%	0%[46.1 µM]
59	O=C(c1ccccn1)N1CCN(S(=O)(=O)c2ccc3ccccc3c2)CC1	-1%	-2%	.	-19%	.	?	.	-13%[46.1 µM]
60	Cc1ccc(-c2ccccc2NC(=O)C2C3C=CC(C3)C2C(=O)O)o1 (stereo not given)	-17%	?	-9%	9%	-7%	0%	1.1%	?
61	CC(C)C(NC(=O)c1c(F)cccc1F)C(=O)NC1CC(C)(C)NC(C)(C)C1 (stereo not given)	4%	-6%	-4%	9%	.	-9%[46.1 µM]	.	-6%[46.1 µM]

Assay outcomes from PubChem.
